# VCAM1 TNFa inh = reduces TNF alpha induced VCAM1 expression in HUVEC | HUVEC TNFa-induced VCAM-1 immunofluorescence, high-content imaging | inhibition, % at 2 µM | actives 0.48% (n = 95,000) | AID 802;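 active = inhibition above the batch mean plus 3 SD, with images confirmed as a hit by eye, cut at about 37% in these data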;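 also: 0% = TNF-stimulated DMSO wells and 100% = unstimulated control wells; not every result past the cut was called active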
# Candida biofilm = kills Candida albicans biofilms; C. albicans biofilm + clotrimazole, Alamar Blue; inhibition, % at 6 µM; actives 0.14% (n = 85,000);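 active = inhibition above 20%; inactive = inhibition below 20%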;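 also: preformed 24 hr biofilms exposed to compound for 48 hr; 0% = biofilm without compound and 100% = blank killed by clotrimazole plus chlorhexidine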
# HUVEC tox TNFa = HUVEC cytotoxicity counter-screen, TNF alpha stimulated. actives 0.17% (n = 93,000). HUVEC TNFalpha-stimulated, Hoechst cell count, imaging. cell count reduction, % at 2 µM;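 active = cell count reduction exceeding the screen mean by over 5 SD, scaled to untreated wells per plate, cut at about 78% in these data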;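 also: cells counted after 24 h of TNF alpha exposure following the 1 h pretreatment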
# Smad3 inh = blocks human Smad3 binding to FoxH1 peptide; P84022; TR-FRET Smad3/Dy647-FoxH1 peptide binding, europium anti-His; inhibition, % at 25 µM; actives 0.29% (n = 88,000); AID 630;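 active = compounds that reduce the energy-transfer binding signal between the protein and its labelled peptide by more than half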;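 also: 0% = Smad3 plus labelled peptide maximal FRET and 100% = peptide-only background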
# Target sequence (P84022 whole entry, looked up): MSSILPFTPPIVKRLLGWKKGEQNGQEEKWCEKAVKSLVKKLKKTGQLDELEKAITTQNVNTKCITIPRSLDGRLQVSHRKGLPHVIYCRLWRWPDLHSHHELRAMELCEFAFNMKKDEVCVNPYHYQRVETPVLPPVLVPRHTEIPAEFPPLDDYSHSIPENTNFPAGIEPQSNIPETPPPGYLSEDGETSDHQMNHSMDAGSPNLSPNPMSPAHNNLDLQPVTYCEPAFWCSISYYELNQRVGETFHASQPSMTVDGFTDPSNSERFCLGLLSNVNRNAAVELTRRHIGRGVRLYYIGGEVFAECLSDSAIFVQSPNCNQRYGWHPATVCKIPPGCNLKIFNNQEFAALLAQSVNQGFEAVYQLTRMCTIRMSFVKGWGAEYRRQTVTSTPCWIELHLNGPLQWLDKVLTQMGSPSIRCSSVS
# IL1B cytotox = toxic to HUVEC cells under IL-1B stimulation; HUVEC cell count loss, Hoechst imaging, IL-1B stimulated; cell count reduction, % at 2 µM; actives 0.41% (n = 94,000);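 active = cell count reduction more than 3 SD above the screen-wide mean, cut at about 70% in these data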;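 also: normalized per plate to untreated control cells as the no-loss baseline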
# ERb coact inh = ER-beta (human) coactivator binding inhibition | inhibition, % at 25.6 µM | Q92731 | TR-FRET ER-beta LBD / SRC1-Cy5 peptide binding; receptor agonist-loaded with 1 µM estradiol | actives 1.3% (n = 86,000) | AID 633;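 active = compounds whose percent inhibition of the receptor-coactivator binding signal exceeds about 50% in the single-dose screen, limit read from the data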;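 also: 0% = receptor plus peptide wells without compound and 100% = peptide-only wells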
# Target sequence (Q92731 whole entry, looked up, the tested form may be a part): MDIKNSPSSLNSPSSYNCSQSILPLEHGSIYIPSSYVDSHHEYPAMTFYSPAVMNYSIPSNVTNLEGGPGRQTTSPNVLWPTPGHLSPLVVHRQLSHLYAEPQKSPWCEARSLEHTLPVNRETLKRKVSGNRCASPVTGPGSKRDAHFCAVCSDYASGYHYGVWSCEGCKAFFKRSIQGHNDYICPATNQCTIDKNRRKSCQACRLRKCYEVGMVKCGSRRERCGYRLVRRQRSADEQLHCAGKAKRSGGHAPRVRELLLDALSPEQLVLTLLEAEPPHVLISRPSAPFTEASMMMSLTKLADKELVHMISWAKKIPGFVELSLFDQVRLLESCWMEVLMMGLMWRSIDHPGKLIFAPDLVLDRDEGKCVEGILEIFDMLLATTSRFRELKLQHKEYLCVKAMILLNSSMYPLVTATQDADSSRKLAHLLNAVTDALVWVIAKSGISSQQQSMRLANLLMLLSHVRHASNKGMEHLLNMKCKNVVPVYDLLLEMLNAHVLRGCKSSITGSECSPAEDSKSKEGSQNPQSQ
# cytoskel mod = modifiers of cytoskeleton assembly | inhibition, % at 2 µM | HUVEC TNFa F-actin phalloidin imaging, high content | actives 0.18% (n = 91,000) | AID 836;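 active = inhibition above the batch mean plus 3 SD and confirmed as a hit by visual image inspection, cut at about 30% in these data, passing the limit was not always enough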; also: strong numbers were not always called active
# Numbers without * were called inactive; / = no result given; [ ] = dose if it differs, or a comment. These rows are one share of the data; rates above refer to the full screens.
SMILES,VCAM1 TNFa inh,Candida biofilm,HUVEC tox TNFa,Smad3 inh,IL1B cytotox,ERb coact inh,cytoskel mod
CC(=O)C1=C(C)NC(SCC(=O)c2ccc(Cl)cc2Cl)=C(C#N)C1c1ccco1 (stereo not given),10,10,-31,-6,-20,25[fluorescence artefact?],-4
O=S(=O)(NC1CC1)c1ccc(S(=O)(=O)N2CCCC(c3nc(-c4cccnc4)no3)C2)cc1 (stereo not given),5,-4,-36,9[fluorescence artefact?],7,-1,-6
C/C(=N/NC(=O)c1cc(Cl)ccc1O)C12CC3CC(CC(C3)C1)C2,4,/,-3,/,-3,/,12
COc1cccc(CNC(=O)C2CCCN(S(=O)(=O)c3cnc[nH]3)C2)c1 (stereo not given),8,19,-16,0,-8,-1,-10
COc1ccc(C(=O)Nc2ccc(-c3ccc(C)o3)cc2)cc1S(=O)(=O)N1CCOCC1,-17,7,-57,-9,-54,4,0
O=C(NCc1ccc2c(c1)OCO2)c1cccc(N2CCCC2=O)c1,11,6,-7,2,3,2,10
CNC(=O)CSc1nnc(-c2ccc(S(=O)(=O)N3CCCC3)cc2)n1-c1cccc(C)c1C,12,7,-2,8,-4,16,-10
Cc1ccc(O)c(NC(=O)c2cccc(S(=O)(=O)N3CCCCC3)c2)c1,27,8,26,12,-27,-5,-27
COc1ccc(CC(=O)Nc2ccc(S(=O)(=O)NCC3CCCO3)cc2)cc1 (stereo not given),-13,0,-2,11[fluorescence artefact?],-28,-1,-2
O=C(CCC(=O)c1cccs1)NC(c1ccccc1)c1ccccc1,-10,0,-8,5,-14,2,6
COc1ccc(C2CC(=O)c3cnc(NC(=O)c4cccc(OC)c4)nc3C2)cc1 (stereo not given),-7,1,3,1,-5,-6,-76
CSCC[C@@H](C(=O)O)N1Cc2ccccc2C1=O,20,10,8,-8,-2,7[fluorescence artefact?],-16
CCOC(=O)CSc1cc(=O)n(CC)c2ccccc12,4,10,6,20[fluorescence artefact?],-3,-6,-12
COC(=O)c1ccc(NC(=O)C2CCCN2S(=O)(=O)c2ccc(F)cc2)cc1 (stereo not given),-20,1,-25,-5,-47,-2,15
Cc1sc(NC(=S)NC(=O)c2ccc(C(C)(C)C)cc2)c(C#N)c1C,-9,-2,-2,-4,17,-5,-6
CC(=O)Cc1nsc(NC(=O)c2ccc(-c3ccccc3Cl)o2)n1,-21,/,-4,/,-36,/,1
O=C(Cc1ccccc1)N1CCCC(c2nc(-c3ccc(S(=O)(=O)N4CCCC4)cc3)no2)C1 (stereo not given),6,1,-15,-15,18,-1[fluorescence artefact?],-25
COC(=O)CCN(C(=O)C12CC3CC(CC(C3)C1)C2)c1ccccn1,24,7,-50,-11,-6,-2,/
CC(=O)N1CCc2cc(C(=O)CN3CCCN(Cc4ccc(F)cc4)C3)ccc21,18,-1,-16,1,-39,5[fluorescence artefact?],21
C=CCNC(=O)c1onc(CCl)c1C(=O)OC,1,/,2,/,26,/,1
CC(=O)c1ccc(N2CCN(C(=O)C3CCCN(S(=O)(=O)c4cnc[nH]4)C3)CC2)cc1 (stereo not given),-1,4,-28,-8[fluorescence artefact?],1,-5,10
Cc1nn(-c2ccc(Cl)cc2)c2[nH]c(=O)c(CNCc3ccc4c(c3)OCO4)cc12,20,1,-27,0,4,4,10
CCOc1ccccc1CNc1nc2nc3c(c(=O)n2[nH]1)CCC3,14,8,-28,4,-8,8,-5
Nc1c(-c2ccc(F)cc2)cnn1C1CCS(=O)(=O)C1 (stereo not given),20,1,-26,3,27,-2,18
O=C(COc1ccccc1)N1CCN(C(=O)Cc2ccccc2)CC1,-22,8,-14,2,8,4,-18

# 2 entries picked at random from those above:
SMILES,VCAM1 TNFa inh,Candida biofilm,HUVEC tox TNFa,Smad3 inh,IL1B cytotox,ERb coact inh,cytoskel mod
C=CCNC(=O)c1onc(CCl)c1C(=O)OC,1,/,2,/,26,/,1
Cc1nn(-c2ccc(Cl)cc2)c2[nH]c(=O)c(CNCc3ccc4c(c3)OCO4)cc12,20,1,-27,0,4,4,10

# Further structures.
SMILES,VCAM1 TNFa inh,Candida biofilm,HUVEC tox TNFa,Smad3 inh,IL1B cytotox,ERb coact inh,cytoskel mod
Cc1ccc(C)c(N2CCN(C(=O)C3CCCN(S(=O)(=O)c4cnc[nH]4)C3)CC2)c1 (stereo not given),14,-8,-13,-22,11,5[fluorescence artefact?],-9
CCOCCCNC(=O)C1CCCCN1S(=O)(=O)c1ccc(F)cc1 (stereo not given),11,5,27,2,-8,21,14
COCCN(CCOC)S(=O)(=O)c1ccc(C(=O)Nc2nnc(C)o2)cc1,5,/,-3,/,-30,/,-11
COC(=O)c1ccc(C2CC(=O)NC3=C2C(=O)CCC3)cc1 (stereo not given),9,6,6,11,0,-5[fluorescence artefact?],7
Cc1ccnc(N2CCC(C(=O)NC3CCCCCC3)CC2)n1,10,5,-15,-6,-19,3,3
CC1CC1C(=O)OCC(=O)NC(=O)NCc1ccco1 (stereo not given),30,2,-4,16,-13,13,-26
Cc1cc(C)n2c(SCC(=O)Nc3ccc(Cl)cn3)nnc2n1,9,/,-8,/,-5,/,0
Cc1nn(CC#N)c(=O)n1-c1ccccc1,-10,5,-2,9,5,2[fluorescence artefact?],-4
COc1ccc(CCN2C(=O)c3[nH]nc(-c4ccccc4O)c3C2c2ccc(C)cc2)cc1OC (stereo not given),12,/,-18,/,-30,/,6
COc1ccc(C(=O)NC(C)(C)C)cc1S(=O)(=O)N1CCCC1,-2,/,-18,/,-9,/,5
CN1C(=O)CS(=O)c2ccc(C(=O)NC3CC3)cc21 (stereo not given),1,4,-20,-7,-10,-9,4
CC(C)C(=O)N1CCN(C2=NS(=O)(=O)c3ccccc32)CC1,-12,6,-25,2,-4,5,-8
Cc1cc(C)c2c(N)c(C(=O)NC3CC3)sc2n1,0,6,5,-10,-18,11,4
Cn1c(C(=O)NCC2CCCO2)cc2c(=O)n3ccccc3nc21 (stereo not given),/,6,/,7,/,-4,/
CCOC(=O)Cc1csc(NC(=O)Nc2ccccc2)n1,4,5,-26,-1,-43,-8,9
Cc1ccc(-c2cnc(NC(=O)CCC(=O)N3CCCCC3)n2C)cc1,-29,7,-29,-7,-27,-7[fluorescence artefact?],3
CCNS(=O)(=O)c1ccc(NC(=O)Nc2cccc(C(F)(F)F)c2)cc1,7,5,-12,7,-24,-11,-8
COc1cccc(OC)c1C(=O)Nc1c(C)n(C)n(-c2ccccc2)c1=O,-10,7,-20,-5[fluorescence artefact?],-1,-9,-4
O=C(NCc1cccs1)C1CCCN(S(=O)(=O)c2ccc3c(c2)OCO3)C1 (stereo not given),8,-4,-14,-3,28,-4,-2
COc1cccc(OC)c1C(=O)NC(=S)Nc1ccc2c(c1)Cc1ccccc1-2,5,0,-11,8,-6,0,15
CCOC(=O)c1nnn(-c2nc(OC)nc(N3CCCCC3)n2)c1-c1ccccc1,-1,/,-7,/,-27,/,-2
COC(CNC(=O)c1ccc(N2CCCC2=O)cc1)OC,-13,7,-8,5,16,2,-21
O=C(N/N=C1\CCCc2ccccc21)C(O)c1ccccc1 (stereo not given),3,/,0,/,-54,/,22
O=C(Cc1ccc(S(=O)(=O)N2CCOCC2)s1)NCC1CCCCC1,24,8,-10,-10,19,37,19
CC(=O)NS(=O)(=O)c1cccnc1Nc1cccc(Cl)c1,-19,/,-52,/,12,/,8

# Ordered by value in ERb coact inh (largest number first): 4 from the list above.
SMILES	ERb coact inh
CC1CC1C(=O)OCC(=O)NC(=O)NCc1ccco1 (stereo not given)	13
CC(C)C(=O)N1CCN(C2=NS(=O)(=O)c3ccccc32)CC1	5
COc1cccc(OC)c1C(=O)NC(=S)Nc1ccc2c(c1)Cc1ccccc1-2	0
CN1C(=O)CS(=O)c2ccc(C(=O)NC3CC3)cc21 (stereo not given)	-9

# Continuation:
SMILES,VCAM1 TNFa inh,Candida biofilm,HUVEC tox TNFa,Smad3 inh,IL1B cytotox,ERb coact inh,cytoskel mod
Cn1c(-c2ccc3c(c2)OCO3)cnc1NC(=O)CCC(=O)NCCc1ccccc1,-2,3,-13,11,10,-1,-1
O=C(N/N=C/c1cccc(F)c1)c1csc2c1CCCC2,-6,/,-27,/,-6,/,6
C=CCn1c(CCNC(=O)c2cccs2)nnc1SCC(=O)Nc1cccc(F)c1,5,-4,-19,-10,2,-12,16
O=C(CCc1ccc(S(=O)(=O)NC2CCCCC2)cc1)N(Cc1ccccc1)Cc1ccccc1,-28,/,15,/,9,/,-1
Cc1nc2ccccc2c2oc(C(=O)Nc3ccc4c(c3)OCCO4)cc12,2,-3,-10,14,-4,9,2
CCOc1ccccc1NC(=S)N1C2CCC1CC(NC(=O)NC13CC4CC(CC(C4)C1)C3)C2 (stereo not given),-8,/,14,/,24,/,22
COc1ccc(C(C#N)Nc2ccccc2OC)cc1 (stereo not given),-40,-1,-46,2,-11,-1,-4
COc1ccc(C(=O)NC2CCN(C(=S)NCc3ccco3)CC2)cc1,-4,/,13,/,8,/,-37
O=C(Oc1ccccc1)c1c(Cl)cccc1P(=O)(O)O,23,-6,30,-8,0,-8,-35
Cc1nc2sc3c(c2c2nnc(SCC(=O)NCc4ccco4)n12)CCCC3,-22,/,/,/,6,/,19
N#Cc1ccc(C2=NC(C(F)(F)F)(C(F)(F)F)c3c(n(Cc4ccco4)c(=O)[nH]c3=O)N2)cc1,4,10,9,-6,-14,-9,-3
COC(=O)c1ccc(NC(=O)C2CCCN(S(=O)(=O)c3cnc[nH]3)C2)cc1 (stereo not given),2,-2,-18,-6,8,-9,4
CCOC(=O)C1=C(CC)Nc2ccccc2N=C1NC(=O)Cn1cnc2ccccc2c1=O,9,5,-4,0,4,-5,14
CSC1=C(C#N)C(c2ccccc2Cl)C(C(C)=O)=C(C)N1 (stereo not given),-1,6,-5,1,-40,-11,10
Cc1ccc(C(=O)NNC(=O)C2CCN(c3nccc(C)n3)CC2)cc1,12,/,-10,/,-36,/,4
COCCn1c(SCc2cnc(-c3ccccc3)s2)nnc1-c1ccncc1,9,6,-32,3,-7,8,11
O=C1CC(c2cccc(Br)c2)C2=C(CCCC2=O)N1 (stereo not given),0,8,-32,-4,-4,3[fluorescence artefact?],5
CS(=O)(=O)N1CC(C(=O)NC2CC2)Oc2ccc(Cl)cc21 (stereo not given),18,/,/,/,10,/,-22
CCCNC(=O)CCC(=O)Nc1ncc(-c2ccc(C)cc2)n1C,-14,7,-40,-2,-23,-6,-21
O=C(O)C1CCN(c2ncccn2)CC1,9,10,-39,2,2,-16,-8
Cc1oc(/C=N/NC(=O)CN(c2ccccc2Br)S(C)(=O)=O)cc1Br,-6,/,-14,/,-1,/,16
COC(=O)C1=C(C)Nc2nnnn2C1c1cccnc1 (stereo not given),-4,4,-6,-7,12,-16,-13
Cc1cc(C(=O)NCCCN2CCCC2=O)cs1,4,8,-34,-7,-37,0,18
O=C(Cc1ccccc1)N/N=C/c1ccccc1Cl,-42,/,-41,/,-14,/,-9
O=C(Nc1ccc2c(c1)OCCO2)c1ccncc1,11,2,-3,-3,-6,-9,-15
SMILES,VCAM1 TNFa inh,Candida biofilm,HUVEC tox TNFa,Smad3 inh,IL1B cytotox,ERb coact inh,cytoskel mod
Cc1ccnc(SCC(=O)Nc2sc3c(c2C#N)CCC(C(C)(C)C)C3)n1 (stereo not given),15,3,3,-7,13,9,2
O=C(Cn1ncc2c1-c1ccccc1OC2)N1CCc2ccccc21,-10,17,-3,-1,-18,-6,13
Cc1ccc(C)c(NC(=O)CCc2ccc(S(=O)(=O)NC3CCCCC3)cc2)c1,13,/,-13,/,-15,/,-2
COCCCn1c(=N)c(C(=O)NCC2CCCO2)cc2c(=O)n3ccccc3nc21 (stereo not given),10,/,-3,/,3,/,27
CSc1nc(-c2ccccc2)nc2c1COC(C)(C)C2,-19,7,-21,6[fluorescence artefact?],-16,-7,-17
COc1ccc(CNc2nc(-c3cccnc3)nn2C(=O)c2ccco2)cc1,21,9,11,5,-35,17[fluorescence artefact?],-8
CC(C)CNS(=O)(=O)c1ccc(C(=O)Nc2ccc3c(c2)OCCO3)cc1,7,/,9,0,-8,-2,15
CCN(CC)S(=O)(=O)c1cc(C(=O)n2cccn2)c(Cl)cc1Cl,11,7,4,2,-7,-5,2
CC1CCN(C(=O)CSc2nnc(-c3ccc(S(=O)(=O)N4CCOCC4)cc3)n2C)CC1,34,7,2,2,-23,-4,-6
Cc1ccc(OCc2nnc(SCC(=O)Nc3ccc4c(c3)OCCO4)n2Cc2ccco2)cc1,-8,0,-20,6,-10,-16,7
Cc1cc(NS(=O)(=O)c2ccc(NC(=O)CCc3ccccc3)cc2)no1,-5,-5,-1,3,24,-2,20
